# Assay outcomes: PubChem, National Center for Advancing Translational Sciences (NCATS)
# HSD17B inh = blocks hydroxysteroid 17-beta dehydrogenase activity. recombinant HSD17B10, NADH fluorescence kinetic; many of its hits are not listed in these tables. Potency, µM (highest dose often 57.1 µM), for inactives: at the top dose activity change, negative = inhibition, most hits filed as inhibitors. AID 893. 75,000 tested, 7.6% active. Q99714; active = well fitted inhibition curve with a large enough effect; inconclusive = small, poorly fitted or top-dose-only effect; inactive = no such curve, though single readings can be large or run the other way;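 note: the protocol describes HADH2 (HSD17B10) and not the HSD17B4 of the title; nearly all actives have a fitted effect of over 70% in size; most hits overshoot -100% by far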
#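 His-tagged E. coli-expressed HADH2 at 20 nM in 100 mM Tris-HCl pH 9.0 with 0.01 % Tween-20, preincubated 15 min with compound at room temperature. Reaction with 1 mM NAD+ and 90 uM beta-hydroxybutyryl coenzyme A; NADH fluorescence (360/450 nm) read kinetically over 4 min, last minus first point.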
# * hit, by the source's call; i = inactive; ? = inconclusive; [ ] = another dose, or the depositor's remark. % is set by controls: 0 for no effect and ±100 for the full control effect; potency is the fitted concentration of half-maximal effect.
SMILES,HSD17B inh
CC(=O)N1C(C(=O)O)CSC1c1cccc(C)c1 (stereo unspecified),-1.4%
Cc1ccc(-c2nc(CS(=O)(=O)CC(=O)NCCCN3CCN(C)CC3)c(C)o2)cc1,-0.7%
CCOC(=O)C1C(C)=CC(=O)CC1c1ccco1 (stereo unspecified),1.8%
O=C(NCC(=O)N(c1ccc2c(c1)OCO2)C(C(=O)NC1CCCC1)c1ccncc1)c1ccco1 (stereo unspecified),9.6%
CCC(C)NC(=O)c1n[nH]c(=O)c2ccccc12 (stereo unspecified),0.1%
O=C(Nc1ccncc1)Nc1ccc(F)cc1F,0.3%
O=C(Nn1c(=S)[nH]c2ccccc2c1=O)c1ccncc1,2.7%
Cc1cccc(NC(=O)NCC(c2cccnc2)N2CCOCC2)c1 (stereo unspecified),3.4%
Cc1cc2c(c(=O)o1)[C@@H](O)[C@H]1O[C@@H]1C2=O,-8.7%[11.4 µM]
CCc1ccc(CCC(=O)Nc2ccc(S(N)(=O)=O)cc2)o1,1.3%
Cc1ccc(-c2nnn(CC(=O)N(Cc3cccs3)C(C(=O)NC3CCCC3)c3ccco3)n2)o1 (stereo unspecified),-3.2%
Cc1cc2oc(=O)cc(COC(=O)c3cccc(N(C)C)c3)c2cc1C,1.6%
CCN1CCCC1CNC(=O)CN1C(=O)COc2ccc(C)cc21 (stereo unspecified),8.7%
CCCCC(c1nnnn1C1CCCC1)N1CCN(C(=O)c2ccco2)CC1 (stereo unspecified),-7.0%
Nc1nncn1C(=O)CCc1ccccc1,4.1%
Cc1cc(N2CCC(C)CC2)nc(-n2nc(C)cc2C)n1,-1.6%
CCOC(=O)c1cn(CC(=O)Nc2ccc(C)cc2)nn1,5.5%
CSc1cccc(NS(=O)(=O)c2cccs2)c1,3.0%
C=CCc1c(C)nc2c(C(=O)O)cnn2c1C,25.1µM*
CCCCOc1ccc(C(=O)NCCCC(=O)N2CCCCC2)cc1,3.3%
CCC(=O)NC(C)c1nc2ccccc2n1C (stereo unspecified),0.4%
Cc1ccc(OCc2nc(C#N)c(NCc3ccc4c(c3)OCO4)o2)cc1,-8.3%
CC(C)NS(=O)(=O)c1ccc(OCC(N)=O)c(Cl)c1,10.3%
Cc1sc2ncn(CC(=O)NCc3ccccn3)c(=O)c2c1S(=O)(=O)N1CCOCC1,8.7%
CN1CCN(c2nc(-c3cccc(C#N)c3)nc3ccccc23)CC1,-5.0%
# (list continues)
SMILES,HSD17B inh
Oc1cc(O)cc(/C=C\c2ccc(O)c(O)c2)c1,31.6µM*
CCn1c(SCc2ccc(OC)cc2)nnc1-c1ccncc1,-18.6%
Cc1nc(N2CCN(C)CC2)[nH]c(=O)c1Cc1cccc2ccccc12,2.3%
CCCCCC(=O)Cc1cc(O)cc(O)c1C(=O)Oc1cc(CC(=O)CCCCC)c(C(=O)O)c(OC)c1,-4.4%
CC1CCCCC1NC(=O)COc1ccc(-n2cnnn2)cc1 (stereo unspecified),-4.6%
O=C(NCc1cccs1)C1CC(=O)N(C2CCCC2)C1 (stereo unspecified),6.9%
CCOCCCn1c(=S)[nH]c2cc(C(=O)N3CCOCC3)ccc2c1=O,0.5%
CCN(CC)C(=O)CSc1nsc(SCC(=O)N(CC)CC)c1C#N,4.8%
O=c1c2[nH]c3cccc(Cl)c3c2ncn1Cc1ccncc1,2.1%
COCC(=O)N1CCC2(CC1)CCN(c1ccncc1)CC2,-4.9%
CCOC(=O)c1c[nH]c2c(Cl)ccc(Cl)c2c1=O,-12.8%
CCc1ccc2[nH]c(=O)c(C(c3nnnn3Cc3ccc(OC)cc3)N3CCOCC3)cc2c1 (stereo unspecified),4.9%
COC(=O)CSc1nnc2n1C(C)(C)Cc1ccccc1-2,0.8%
COc1cc(C(=O)NCc2cn3ccsc3n2)cc(OC)c1OC,2.8%
CCOC(=O)CSc1nnc([C@H](CC(C)C)NC(=O)OC(C)(C)C)o1,1.1%
CCCCN(C)C(=O)C(Cc1ccccc1)NS(=O)(=O)c1ccc2c(c1)CCC(=O)N2 (stereo unspecified),-3.4%
CCOC(=O)CCn1nnc(N)n1,-0.4%
O=C(NC12CC3CC(CC(C3)C1)C2)N1CCC(O)CC1,1.0%
COc1ccc(N(Cc2cc3cc(OC)ccc3[nH]c2=O)S(C)(=O)=O)cc1,5.2%
Cc1cc(C(=O)NCCCc2ccccc2)no1,10.2%
O=C(CN(C(=O)CCC(=O)Nc1nccs1)c1ccc2c(c1)OCO2)NCC1CCCO1 (stereo unspecified),12.3%
CCn1c(SCC(=O)Nc2cccc(C)n2)nnc1-c1ccco1,7.5%
CC(C)(C)n1nnnc1C(c1ccc2ncccc2c1)N1CCSCC1 (stereo unspecified),0.9%
COc1ccccc1C(=O)Nc1c(C)n(C)n(-c2ccccc2)c1=O,14.2%
NS(=O)(=O)c1ccc(NC(=O)CCC2CCCCC2)cc1,10.4%
# The listing continues.
SMILES,HSD17B inh
CC(CCc1ccccc1)NC(=O)C1CCN(c2nnc(-n3cccc3)s2)CC1 (stereo unspecified),-2.9%
O=C(Nc1cnc2ccccc2c1)N1CCOCC1,?
O=Nc1c(-c2c(O)[nH]c3cc(Br)ccc23)[nH]c2ccccc12,-6.3%
COc1cc(C)nc(N2CCC(C(=O)NC3CCCCC3)CC2)n1,-0.6%
CCOC(=O)CSc1nn(C)c(=S)s1,-4.9%
CCOC(=O)N1CCN(C(=O)C2CCN(S(=O)(=O)c3ccc(Br)s3)CC2)CC1,2.3%
CCCC/C=C/C(NC(=O)c1ccc(-c2ccccc2)cc1)c1ccccc1 (stereo unspecified),3.3%
O=C(CSc1nnc(-c2cccs2)o1)N1CCCCC1,-5.8%
Fc1cccc(/C=N\N=C/c2cccc(F)c2)c1,-3.9%
O=C1CC(c2ccc(F)cc2)Sc2ccccc2N1 (stereo unspecified),0.8%
c1ccc(COc2ccc(Nc3ncnc4nc[nH]c34)cc2)cc1,-10.3%
COn1c(SCc2cccnc2)nc2ccccc2c1=O,-4.2%
COc1cccc(C2=NOC(C(=O)Nc3ccc(OC)c(OC)c3)C2)c1 (stereo unspecified),-3.2%
Cc1sc2nc(C(C)Nc3ccccc3N3CCOCC3)[nH]c(=O)c2c1C (stereo unspecified),-0.3%
O=C(NCCOC(=O)c1ccc(C(=O)OCCNC(=O)c2ccccc2)o1)c1ccccc1,1.6%
O=S(=O)(c1cccc2cccnc12)N1CCc2ccccc21,12.2%
N#C/C(=C\c1ccc(O)c(O)c1)C(=O)NCCCc1ccccc1,31.6µM*
NC([N-]/N=C/c1ccccn1)=[S]=[Fe].O=S(=O)(O)O,-23.3%[11.4 µM]
CCN1CCN(C(c2cc(OC)ccc2OC)c2nnnn2Cc2ccccc2)CC1 (stereo unspecified),-3.2%
CCOC(=O)c1ccccc1NC(=O)CN(c1ccccc1OCC)S(C)(=O)=O,?
CCCCCC(C(=O)O)C(C)CC(=O)NC1CCCCC1 (stereo unspecified),15.4%
CSc1nnc(-c2ccncc2)n1CCCN1CCCC1=O,-4.0%
Cc1ccc(-c2nnc(SCC(=O)Nc3ccccc3N3CCOCC3)o2)cc1,-5.2%
CC1=C(C(=O)Nc2ccccc2Cl)C(c2ccc(N(C)C)cc2)NC(=O)N1 (stereo unspecified),-3.0%
CC1CCCC(C)N1C(=O)CN1CCN(c2nc(-c3ccc(F)cc3)cs2)CC1 (stereo unspecified),-6.9%

# Next section; it opens with the 4 that closed the last part.
SMILES,HSD17B inh
CSc1nnc(-c2ccncc2)n1CCCN1CCCC1=O,-4.0%
Cc1ccc(-c2nnc(SCC(=O)Nc3ccccc3N3CCOCC3)o2)cc1,-5.2%
CC1=C(C(=O)Nc2ccccc2Cl)C(c2ccc(N(C)C)cc2)NC(=O)N1 (stereo unspecified),-3.0%
CC1CCCC(C)N1C(=O)CN1CCN(c2nc(-c3ccc(F)cc3)cs2)CC1 (stereo unspecified),-6.9%
CC(C)CO[C@H](c1ccc2c(c1)OCO2)[C@H](C)Br,4.9%[11.4 µM]
O=C(CN1C(=O)CSc2ncccc21)NCCN1CCOCC1,8.6%
Cc1ccc2sc(NC(=O)CN3C(=O)CCC3=O)nc2c1C,15.1%
CCOc1ccc(-n2c(=O)c3c(C)c(C)sc3n(CC(=O)NCc3ccco3)c2=O)cc1,0.6%
Cc1nc2cc(C(F)(F)F)ccc2n1C1CCN(CC(=O)NC(C)(C)C)CC1,6.7%
O=C(Nc1ccc(N2CCOCC2)cc1)C1CC1,6.4%
O=C1C2CCCN2C(c2ccc(Br)cc2)N1c1ccc(F)cc1 (stereo unspecified),7.2%
Cn1cnnc1Sc1nc2c(c(=O)n(C)c(=O)n2C)n1C,5.0%
Cc1n[nH]c(C)c1S(=O)(=O)N1CCc2ccccc21,5.7%
Cc1oc(-c2nc3ccccc3n2C)cc1C(=O)c1ccccc1,-26.8%
COc1cccc(C2CC(c3ccccc3)Nc3ncnn32)c1 (stereo unspecified),17.4%
COc1ccc(CN2C(=O)CN=C2Nc2cccc(C)c2C)cc1,-8.5%
Nc1nc(SCc2ccc([N+](=O)[O-])cc2)c2ncn([C@@H]3O[C@@H](CO)[C@@H](O)[C@H]3O)c2n1,-8.1%
Cc1nn(S(=O)(=O)N2CCCCC2)c(C)c1Br,6.3%
CC#CCCC(=O)N1C=Cc2ccccc2C1C#N (stereo unspecified),5.8%
NC(N)=N[C@@H]1C(O)[C@H](N=C(N)N)[C@@H](O)C(O)[C@H]1O (stereo partly specified),2.2%[11.4 µM]
O=C(C1=C(O)C(=O)N(Cc2ccco2)C1c1cccnc1)c1cc2ccccc2o1 (stereo unspecified),12.6µM*
O=c1[nH]cnc2sc3c(c12)CCCC3,-11.1%
CN(CC(=O)Nc1ccc2c(c1)OCCO2)S(=O)(=O)c1ccc(Br)s1,-5.3%
Cn1c(NCc2cccs2)nc2ccccc21,3.4%
COc1ccc(/C(O)=C2/C(=O)C(=O)N(Cc3cccnc3)C2c2ccncc2)cc1F (stereo unspecified),-14.0%
Cc1ccc(S(=O)(=O)NC2CCCC(C(=O)O)C2)cc1 (stereo unspecified),3.9%
C[N+](C)(C)c1ncnc2c1ncn2[C@@H]1C[C@H](O)[C@@H](CO)O1,7.6%[11.4 µM]
O=C(CSc1nc(NS(=O)(=O)c2ccccc2)cc(=O)[nH]1)Nc1ccc(F)cc1,?
Cc1c(Cl)cccc1NC(=O)c1cc(C2CC2)on1,-9.2%

# Rewritten with each value named: four of the compounds above.
NC(N)=N[C@@H]1C(O)[C@H](N=C(N)N)[C@@H](O)C(O)[C@H]1O (stereo partly specified)
  HSD17B inh: 2.2%[11.4 µM]

O=C(C1=C(O)C(=O)N(Cc2ccco2)C1c1cccnc1)c1cc2ccccc2o1 (stereo unspecified)
  HSD17B inh: 12.6µM*

O=c1[nH]cnc2sc3c(c12)CCCC3
  HSD17B inh: -11.1%

CN(CC(=O)Nc1ccc2c(c1)OCCO2)S(=O)(=O)c1ccc(Br)s1
  HSD17B inh: -5.3%

# Next part
SMILES,HSD17B inh
Cc1ccccc1-c1nc(CS(=O)(=O)CC(=O)Nc2cc(F)ccc2F)c(C)o1,16.6%
Cc1nn(C)c(C)c1S(=O)(=O)Nc1ccc2c(c1)OCO2,-1.1%
CCn1c(NC(=O)c2cccc(Cn3cc(Cl)cn3)c2)nc2ccccc21,i
Cn1c(C(=O)N2CCCC(C(=O)NCCCSC3CCCCC3)C2)cc2sccc21 (stereo unspecified),3.6%
COc1ccc(S(=O)(=O)Cc2ccc(C(=O)N3CCN(c4ccccn4)CC3)o2)cc1,1.9%
Cc1cc2c(=O)n(CC(=O)N3CCN(c4ccc(F)cc4)CC3)cnc2s1,11.3%
Cc1ccc(CNC(=O)CN2C(=O)COc3ccc(C)cc32)cc1,1.8%
CCC1=C2CC[C@H]3C(=O)NC(=O)[C@H]3[C@H]2[C@@]2(C)C(=NCC(=O)OC)OC(=O)N2C1=O,-10.4%
CCC(C)(C)n1nnnc1C(c1ccccn1)N1CCOCC1 (stereo unspecified),-1.0%
CC(C)(C)OC(=O)N1CCCC(C(=O)CC#N)C1 (stereo unspecified),-12.9%
CCOC(=O)c1sc(NC(=O)CSc2n[nH]c(-c3ccccc3)n2)c(C#N)c1C,25.1µM*
CC(=O)Nc1ccc(C(=O)CSc2nnc(Cn3nnc4ccccc43)n2C)cc1,-4.5%
Clc1ccc(-c2nn3c(-c4ccccc4)nnc3s2)cc1,?
CN(C)c1ccnc2sc3c(=O)n(Cc4ccccc4)cnc3c12,-21.7%
C=C(C)C(O)/C=C/c1cccc(OC)c1 (stereo unspecified),-3.9%[11.4 µM]
Cc1ccc(/C=c2/sc3nnc(-c4ccccc4Cl)n3c2=O)o1,?
CCOC(=O)c1c(CN2CCN(c3ccccc3)CC2)oc2ccc(O)cc12,-9.6%
Cc1nc2ccc(NC(=O)N3CCC(c4ccccc4)C3)cc2nc1C (stereo unspecified),25.1µM*
COc1ccccc1NC(C)=O,1.7%
Nc1nc2[nH]c(=O)c(=O)[nH]c2c(=O)[nH]1,-3.5%
COc1ccc(CN2CCN(C(=O)CC(C)C)CC2)c(OC)c1OC,4.0%
COc1cccc(OC)c1C(=O)N1CCN(S(=O)(=O)c2ccccc2)CC1,8.5%
Cc1cc(N2CC34C=CC(O3)C(C(=O)O)C4C2=O)no1 (stereo unspecified),8.9%

# Not all compounds are listed (hit frequency here may not be typical).
